Screens: PubChem BioAssay, National Center for Advancing Translational Sciences (NCATS)
N370S GC mod: qHTS Assay for Inhibitors and Activators of N370S glucocerebrosidase as a Potential Chaperone Treatment of Gaucher Disease; AID 2101, 2009; Potency, µM (titrated, usually from 59.4 µM), without a hit: at the highest dose activity change, negative = inhibition, usual class: inhibitors; hit rate 0.092% among 330,000; N370S GC spleen homogenate, 4MU-glucoside fluorescence;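 note: 0% = full enzyme activity and -100% = no enzyme basal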
KAT2A inh: qHTS Assay for Inhibitors of GCN5L2 | Histone acetyltransferase KAT2A (Homo sapiens), Q92830 | GCN5L2 HAT assay, ThioGlo1 CoA-SH fluorescence | Potency, µM (titrated, usually from 58.9 µM), for inactives: at the top dose activity change, negative = inhibition, usual class: inhibitors | hit rate 0.21% among 390,000
Target sequence (Q92830 whole entry, looked up): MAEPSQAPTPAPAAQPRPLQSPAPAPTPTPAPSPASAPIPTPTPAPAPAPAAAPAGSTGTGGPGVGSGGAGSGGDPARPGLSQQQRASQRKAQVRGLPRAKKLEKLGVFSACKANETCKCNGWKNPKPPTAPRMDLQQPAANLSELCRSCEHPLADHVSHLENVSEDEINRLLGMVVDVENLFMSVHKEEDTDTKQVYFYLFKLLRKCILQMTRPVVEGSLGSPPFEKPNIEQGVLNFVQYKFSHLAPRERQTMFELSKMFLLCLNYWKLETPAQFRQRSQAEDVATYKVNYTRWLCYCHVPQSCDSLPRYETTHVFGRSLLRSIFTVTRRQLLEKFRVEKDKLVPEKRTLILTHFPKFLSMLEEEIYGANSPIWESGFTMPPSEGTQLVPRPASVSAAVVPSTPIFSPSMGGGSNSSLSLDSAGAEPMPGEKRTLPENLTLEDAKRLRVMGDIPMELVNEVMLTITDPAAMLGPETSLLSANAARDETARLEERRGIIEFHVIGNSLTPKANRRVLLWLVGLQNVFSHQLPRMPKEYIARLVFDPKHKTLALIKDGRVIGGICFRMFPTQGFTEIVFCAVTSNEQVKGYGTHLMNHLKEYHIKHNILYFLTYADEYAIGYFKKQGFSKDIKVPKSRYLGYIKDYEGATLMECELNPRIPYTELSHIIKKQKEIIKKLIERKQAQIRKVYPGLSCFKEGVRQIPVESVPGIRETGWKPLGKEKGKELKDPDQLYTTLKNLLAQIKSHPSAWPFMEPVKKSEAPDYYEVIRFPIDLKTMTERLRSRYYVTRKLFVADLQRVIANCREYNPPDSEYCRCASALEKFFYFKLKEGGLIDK
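Titration-based screen in which CoA formation is detected via maleimide probe ThioGlo1 (50uM) turning fluorescent on thiol reaction; substrates H3(1-25) 75uM and acetyl-CoA 70uM, GCN5L2 20nM, 20 min incubation at room temperature.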
The depositor's hits bear a star; ? = inconclusive; . = not tested or not shown; & = joins results of further samples; [ ] = another dose, or the depositor's remark. Calls come from the whole dose curve; as a rule, active = well fitted curve in the direction sought with a large enough effect; inconclusive = small, poorly fitted or top-dose-only effect, or another doubt; inactive = no such curve, though single readings can be large; an effect the other way counts as inactive or inconclusive. Unless noted, % is set by controls: 0 for no effect and ±100 for the full control effect; potency is the fitted concentration of half-maximal effect. Only part of the results is shown; most or all hits stand in other tables.

N370S GC mod,KAT2A inh,SMILES
4%,-18%,COC(=O)C1CCN(CC(=O)NC(=O)NC2CCCCC2)CC1
-10%,-12%,CCOc1ccc(C2C(C(=O)c3ccc(C)o3)=C(O)C(=O)N2CCN2CCOCC2)cc1OC (stereo not given)
-20%,-4%,O=C(NCc1ccccc1)C(c1ccc(O)cc1)N(C(=O)c1cnccn1)c1ccccc1 (stereo not given)
3%,2%,CS(=O)c1ccccc1O (stereo not given)
-14%,-3%,O=C(Cn1nnc(-c2ccccc2-n2cnnn2)n1)N1CCCCC1
-16%,-16%,Cc1cc(N)n(-c2ccc(S(=O)(=O)N3CCCC3)cc2[N+](=O)[O-])n1
-14%,-14%,O=C(Cn1c(=O)[nH]c2ccccc2c1=O)N1CCN(c2cccc(Cl)c2)CC1
?,1%,O=C(COc1ccc(Br)cc1Br)NC(=O)NC1CCCC1
-1%,0%,COc1ccc(N2CC(C(=O)N/N=C/c3ccc([N+](=O)[O-])cc3)CC2=O)cc1 (stereo not given)
.,-6%,CC1=C(c2ccc(Cl)cc2)S(=O)(=O)N=C1N1CCN(c2cccc(C(F)(F)F)c2)CC1
14%,-6%,N#CC1=C(N)N(c2ccccc2)C2=C(C(=O)CCC2)C1c1cccs1 (stereo not given)
-3%,-14%,O=C(NCC(c1cccs1)N1CCOCC1)c1ccc([N+](=O)[O-])cc1 (stereo not given)

The list goes on.
N370S GC mod,KAT2A inh,SMILES
.,-3%,CC(=O)N1CCN(CC(C)(C)NS(=O)(=O)c2ccccc2)CC1
-1%,-9%,COc1cc(C(=O)COC(=O)c2cc([N+](=O)[O-])ccc2N2CCOCC2)ccc1OC(F)F
10%,0%,CC(C)Oc1ccc(C(=O)Nc2ccccc2N2CCOCC2)cc1
0%,-4%[0.501 µM],C(=N\N1CCN(Cc2cccc3ccccc23)CC1)/c1ccco1
7%&-1%,-3%&0%,O=C(O)c1cc(-c2ccccc2)nc2ccccc12
-2%,-30%,Cc1ccc(-c2csc(NC(=O)C3CSC4(C)CCC(=O)N34)n2)cc1 (stereo not given)
4%,0%,CN(C(=O)C1CCN(S(=O)(=O)c2cccs2)CC1)C1CCCCC1
6%,-6%,CC(=O)c1c(C)[nH]c(C(=O)NCc2ccccc2Cl)c1C
8%,-8%,CCC(C)NC(=O)CS(=O)Cc1nc(-c2cccc(OC)c2)oc1C (stereo not given)
3%,1%&-1%,CCOc1ccc(Cn2c(=O)sc3ccccc32)cc1
.,-10%,O=C(CN1C(=O)C2CC=CCC2C1=O)Nc1nc(-c2ccc(F)c(F)c2)cs1 (stereo not given)
-4%,1%,CS(=O)(=O)c1cccc(-c2nnc(NC(=O)c3ccc4ncsc4c3)o2)c1

Further structures follow.
N370S GC mod,KAT2A inh,SMILES
18%,-8%,COc1ccc(CC2(CO)CCN(S(=O)(=O)c3sccc3C)CC2)cc1
1%,-6%,O=C(C1=C[C@H](c2coc3ccccc3c2=O)C[C@H](OCCCCO)O1)N1CCN(Cc2ccc3c(c2)OCO3)CC1
1%,3%,CC(C)(C)Nc1nc(NCc2cccnc2)nc(N2CCOCC2)n1
-1%,-11%,Cc1oc(-c2ccccc2Cl)nc1CS(=O)(=O)CC(=O)N1CCOCC1
14%,-6%,COCCCNC(=O)CC(=O)N/N=C\c1ccc(SC)cc1
6%,-7%,O=C(CCS(=O)(=O)c1ccccc1)NC12CC3CC(CC(C3)C1)C2
5%,-4%,O=C(Cc1cccs1)Nc1ccccn1
6%,0%,Cc1ccc(S(=O)(=O)/N=C(\N)Nc2nc(C)c3cc(C)c(C)cc3n2)cc1
8%,4%,CC1CN(C)C(c2ccccc2)C(C)C12NC(=O)NC2=O (stereo not given)
3%,-17%,Clc1ccccc1OCc1nc(-c2ccc(Br)o2)no1
8%,1%,CC(C)(C)NC(=O)COc1ccccc1C#N
-2%,0%,COc1cc(OC)cc(C(=O)N2CCN(Cc3ccccc3C(F)(F)F)CC2)c1

The final two compounds of the part above open the next one.
N370S GC mod,KAT2A inh,SMILES
8%,1%,CC(C)(C)NC(=O)COc1ccccc1C#N
-2%,0%,COc1cc(OC)cc(C(=O)N2CCN(Cc3ccccc3C(F)(F)F)CC2)c1
-5%,-10%,Cc1ccc(-n2nnc3c(=O)n(CC(=O)N4CCC(C)CC4)cnc32)cc1
0%,-19%,O=C(O)c1ccccc1C(=O)c1ccc(N2CCCC2)c([N+](=O)[O-])c1
?,0%,CCOC(=O)c1cc2sc(C)cc2n1CC(=O)Nc1ccc2c(c1)OCCO2
0%,-3%,NS(=O)(=O)c1ccc(N2CCN(C(=O)C3COc4ccccc4O3)CC2)nc1 (stereo not given)
-3%,-2%,COc1nsnc1NS(=O)(=O)c1ccc(NC(=S)NC(=O)c2ccncc2)cc1
.,-15%,CC(=O)c1ccc(NC(=O)CSc2nc(-c3ccccc3C)nc3c2c(=O)n(C)c(=O)n3C)cc1
3%,-5%,CC(C)CN(C(=O)CC(C)c1ccccc1)c1c(N)n(Cc2ccccc2)c(=O)[nH]c1=O (stereo not given)
-12%,-9%,COc1ccccc1/C=N\Nc1cc(C)nc(-n2nc(C)cc2C)n1
13%,-1%,CCOC(=O)c1cnc(SC2CCc3ccccc3C2=O)nc1N (stereo not given)
-1%,-18%,CC1CCN(Cc2nnc(-c3cccc(Br)c3)o2)CC1
4%,-1%,COc1cc2c(cc1OC)C(C(=O)N1CCN(c3ccccn3)CC1)C(c1cccs1)N(C)C2=O (stereo not given)
1%,-22%,CNc1cc([N+](=O)[O-])ccc1OCc1ccccc1

Continued:
N370S GC mod,KAT2A inh,SMILES
-11%,-8%,CCOc1ccccc1NC(=O)NC1(C(=O)N2CCOCC2)CCCCC1
.,2%,Nn1c(SCC(=O)NCCc2ccc(F)cc2)nnc1C1CCCCC1
-4%,?,CCOc1nnc(C)c2c(C)n(-c3ccc(Cl)cc3)nc12
11%[2.35 µM],0%,CCn1cnc2c1c(=O)n(CC(=O)Nc1cc(C)on1)c(=O)n2Cc1ccccc1
14%,0%,O=C(CSc1nc2ccccc2c(=O)n1-c1ccccc1)NCc1ccc2c(c1)OCO2
-1%,0%,COc1ccc(CN(C)C(=O)c2cc(-c3ccc(OC)c(OC)c3)nc3ccccc23)c(OC)c1
-4%,1%,O=C(c1ccc(Br)cc1)N1CCC(C(=O)N2CCN(Cc3ccccc3)CC2)CC1
7%,-8%,NC(=O)c1c(NC(=O)Cn2cc([N+](=O)[O-])cn2)sc2c1CCCC2
.,-3%,Cc1ccc(-c2cc(C(F)(F)F)n3nc(C(=O)Nc4ccc(C#N)cc4)cc3n2)cc1
-6%,0%[0.501 µM],O=C(c1ccncc1)N1CCN(c2cccc(C(F)(F)F)c2)CC1
-3%,-5%,Cc1ccc2nc(NC(=O)CSCC(=O)OCC(=O)c3ccc(Br)cc3)sc2c1
-2%,-1%,C=CCn1c(COc2ccccc2F)nnc1SCCN1C(=O)c2ccccc2C1=O

Other compounds follow:
N370S GC mod,KAT2A inh,SMILES
1%,-5%,Cc1ccc(/C=N/n2cc(-c3ccccc3)[nH]c2=S)s1
12%,-1%,Cc1ccc(Nc2ccc(C(N)=O)cc2[N+](=O)[O-])cc1
3%,-2%,COC(=O)/C(=N\OCc1ccc(C#N)cc1)c1c(C)nn(C)c1C
9%,-1%,Cc1ccc(NC(=O)NNC(=O)c2ccc3c(c2)NC(=O)C(C)(C)O3)cc1
.,-4%,CCCCOc1ccccc1Cn1c(=O)sc2ccccc21
4%,-1%,CCCn1c(=O)c(C(=O)NNC(=O)Cc2ccccc2)c(O)c2ccccc21
-6%,-11%,COc1ccccc1N1CCN(S(=O)(=O)CCNC(=O)c2ccc(OC(C)C)cc2)CC1
-2%,-11%,COCCCN1C(=O)c2ccc(C(=O)OCC(=O)NCCc3ccccc3)cc2C1=O
-6%,-8%,CCNS(=O)(=O)c1ccc(CCC(=O)N2CCN(c3ccccc3F)CC2)cc1
8%,-2%,COC(=O)c1cc([N+](=O)[O-])c(-n2cncn2)c([N+](=O)[O-])c1
8%,-1%,Cc1nnc(Sc2c(N)n(C)c(=O)n(C)c2=O)s1
-2%,0%,Cc1ccc(S(=O)(=O)Cc2c(C)noc2C)cc1

Some of these compounds in order of their number in N370S GC mod, highest first.
SMILES,N370S GC mod
O=C(CSc1nc2ccccc2c(=O)n1-c1ccccc1)NCc1ccc2c(c1)OCO2,14%
O=C(CCS(=O)(=O)c1ccccc1)NC12CC3CC(CC(C3)C1)C2,6%
O=C(Cc1cccs1)Nc1ccccn1,5%
CN(C(=O)C1CCN(S(=O)(=O)c2cccs2)CC1)C1CCCCC1,4%
CCOc1ccc(Cn2c(=O)sc3ccccc32)cc1,3%
Cc1ccc(S(=O)(=O)Cc2c(C)noc2C)cc1,-2%
O=C(c1ccc(Br)cc1)N1CCC(C(=O)N2CCN(Cc3ccccc3)CC2)CC1,-4%

More results
N370S GC mod,KAT2A inh,SMILES
-15%,2%,COc1ccc(C(=O)Nc2cc([N+](=O)[O-])ccc2N2CCN(C)CC2)cc1
.,-2%,COc1ccc(CNC(=O)CC2C[C@H](C(=O)N(C(C)C)C(C)C)[C@@]3(C)c4[nH]c5ccccc5c4CCN3C2=O)cc1OC (stereo not given in full)
-11%,-14%,O=C(c1ccco1)N1CCN(C(=O)C(Sc2ccccc2)c2ccccc2)CC1 (stereo not given)
-2%[12.8 µM],-15%,COC(=O)CCC(=O)OC1(C)C(=O)C=C2C=C(C3CC3)N(Cc3ccccc3)C=C2C1=O (stereo not given)
13%,-9%,O=S(=O)(Nc1ccc(N2CCCCC2)cc1)c1ccc(F)cc1F
2%,0%,CC(C)NC(=O)NC(=O)COc1ncnc2sccc12
-8%,-12%,Cc1cc(C(F)F)n2nc(C(=O)Nc3sc4c(c3C#N)CCC4)nc2n1
16%,-5%,CC1CCCC(C)N1c1nnc(N)s1 (stereo not given)
-6%,23%,C=CCSc1nc2c(C(=O)OCC)nnn2c2ccccc12
7%,-5%,Cc1cccc(Nc2nc(-c3ccc4c(c3)OCCO4)cs2)c1
-1%,-6%,COc1ccccc1N(CC(=O)Nc1ccccc1C(=O)N1CCCC1)S(C)(=O)=O
9%,-8%,CCC(C)(C)NC(=O)CN(CC1CCCO1)C(=O)CNS(=O)(=O)c1ccccc1 (stereo not given)

The list goes on.
N370S GC mod,KAT2A inh,SMILES
18%,2%,COC(=O)C1=C(C)N(Cc2ccco2)C(=O)N[C@@H]1c1ccccc1
15%,-4%,COc1cc(NC(=O)COc2ccccc2)c(OC)cc1NC(C)=O
21%,-6%,COC(=O)c1ccc(OCC2c3cc(OC)c(OC)cc3CCN2C(=O)c2ccco2)cc1 (stereo not given)
-2%,-7%,O=C(NC1CCCCC1)C1Cc2ccccc2CN1S(=O)(=O)c1ccc(F)cc1 (stereo not given)
0%,1%,Cc1ccc2c(CN3CCN(CCO)CC3)cc(=O)oc2c1C
2%,4%,CC(Nc1ccc(Cl)c(Cl)c1)C(=O)NN (stereo not given)
-5%,?,COc1cc(C(=O)NCc2nnc(SCC(=O)NCc3ccccc3)o2)cc(OC)c1OC
-4%,0%,Cc1cc(C(=O)NCC(c2cccs2)N2CCOCC2)ccc1[N+](=O)[O-] (stereo not given)
5%,5%,CCOC1CCCCC1NS(=O)(=O)c1ccc(Cl)cc1 (stereo not given)
20%,-3%,CCCCN(Cc1cc2cc(OC)ccc2[nH]c1=O)C(=O)c1ccco1
-14%,-4%,CCOC(=O)CC1COc2ccccc2N1C(=O)c1ccc(F)cc1 (stereo not given)
-2%,-9%,COc1ccc(-c2cc(C(=O)O)sc2C)cc1

The list goes on; the last four above are carried over.
N370S GC mod,KAT2A inh,SMILES
5%,5%,CCOC1CCCCC1NS(=O)(=O)c1ccc(Cl)cc1 (stereo not given)
20%,-3%,CCCCN(Cc1cc2cc(OC)ccc2[nH]c1=O)C(=O)c1ccco1
-14%,-4%,CCOC(=O)CC1COc2ccccc2N1C(=O)c1ccc(F)cc1 (stereo not given)
-2%,-9%,COc1ccc(-c2cc(C(=O)O)sc2C)cc1
1%,1%,COCCN(C(=O)CCC(=O)Nc1nccs1)C(C(=O)NC(C)(C)C)c1ccc(C)cc1 (stereo not given)
5%,4%,CCC(C(=O)Nc1nc(C)c(C(=O)OC)s1)c1ccccc1 (stereo not given)
-12%,-10%,O=C(CNC(=O)c1ccc(Oc2ccccc2)cc1)OCc1ccc(Br)cc1
0%,-7%,O=Nc1c2ccc[nH]c-2c2ccc([N+](=O)[O-])cc12
3%,1%,Cc1ccc(NC(=O)CCn2cccc2)cc1
4%,-2%,CC1SC(=NC(=O)c2ccco2)NC1=O (stereo not given)
-9%,-16%,CCOC(=O)C1(CCOc2ccccc2)CCN(CC2CC2)CC1
14%,-3%,Cc1cccc(-n2c(=O)c3c(n4cnnc24)-c2ccccc2CC32CCCCC2)c1
-22%,-4%,Cc1ccc(NC(=O)COC(=O)CCc2ccc(S(=O)(=O)N3CCOCC3)cc2)cc1F
.,-6%,COc1ccc(NC(=O)CSc2nnc(C)s2)cc1S(=O)(=O)N1CCOCC1
-1%,-19%,Cc1cc(C(=O)COC(=O)c2ccc(Br)o2)c(C)n1C

Shown as a markdown table: part of the list above.
| mol | N370S GC mod | KAT2A inh |
| --- | --- | --- |
| COCCN(C(=O)CCC(=O)Nc1nccs1)C(C(=O)NC(C)(C)C)c1ccc(C)cc1 (stereo not given) | 1% | 1% |
| Cc1cc(C(=O)COC(=O)c2ccc(Br)o2)c(C)n1C | -1% | -19% |
